Screens (PubChem)
RE007 growth inh – less growth of the S. pombe RE007 Vpr strain. S. pombe RE007 Vpr strain, BacTiter-Glo ATP luminescence, 24 h; control for the full effect not named in the record. Potency, µM (doses to about 92.2 µM), for the others: at the top dose activity change, negative = less growth. actives 0.21% (n = 360,000). AID 651644; active = well fitted falling curve with a large enough effect; inconclusive = small, poorly fitted or top-dose-only effect; inactive = no such curve, though single readings can be large or run the other way;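 further: on the % scale 0 is the no-effect control and ±100 the full control effect; nearly all actives have a fitted effect of over 50% in size; the assay follows cell death caused by Vpr and the record does not say whether a fall means rescue or toxicity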
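Fission yeast strain RE007, carrying one chromosomally integrated HIV-1 vpr copy, was seeded at OD 0.01 in PMG+AL medium with 23 nL pinned compound. After 24 h at 30 °C and 99% humidity, viability was read by BacTiter-Glo luminescence.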
SARS PLpro yeast – blocks SARS-CoV papain-like protease in a yeast assay. S. cerevisiae expressing SARS-CoV PLpro, growth rescue; control for the full effect not named in the record. Potency, µM (series often up to 32.9 µM), for the others: top-dose activity, positive = growth rescue. actives 0.19% (n = 330,000); active means well fitted rising curve with a large enough effect; inconclusive means small, poorly fitted or top-dose-only effect; inactive means no such curve, though single readings can be large or run the other way; further: 0% is about no effect; nearly all actives have a fitted effect of over 55% in size; growth read by luminescence after 48 h
NS1 function inh – inhibitors of influenza NS1 protein function; actives 0.4% (n = 270,000); Potency, µM (highest dose often 46.1 µM), without a hit: at the highest dose activity, positive = more growth; S. cerevisiae slowed by influenza A NS1, growth recovery by OD600; active means well fitted rising curve with a large enough effect; inconclusive means small, poorly fitted or top-dose-only effect; inactive means no such curve, though single readings can be large or run the other way; further: nearly all actives have a fitted effect of over 50% in size
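Compounds were scored for reversing the slow growth caused by influenza A NS1 in S. cerevisiae, measured by optical density at 600 nm. Assay medium contained 2% galactose at pH 6.0; NS1-free yeast of the same strain were the positive control.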
Cruzain Triton – cruzain (T. cruzi) inhibition with detergent. purified cruzain, Z-FR-AMC fluorescence, 0.01% Triton. Potency, µM, inactives show max response, negative = inhibition, most hits filed as inhibitors. actives 0.43% (n = 200,000). AID 1478;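 further: plate controls were neutral wells for no effect and buffer without enzyme for full effect; nearly all actives have a fitted effect of over 40% in size; top concentration of the series not given in the record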
Target sequence (P25779 123-467 limits assumed): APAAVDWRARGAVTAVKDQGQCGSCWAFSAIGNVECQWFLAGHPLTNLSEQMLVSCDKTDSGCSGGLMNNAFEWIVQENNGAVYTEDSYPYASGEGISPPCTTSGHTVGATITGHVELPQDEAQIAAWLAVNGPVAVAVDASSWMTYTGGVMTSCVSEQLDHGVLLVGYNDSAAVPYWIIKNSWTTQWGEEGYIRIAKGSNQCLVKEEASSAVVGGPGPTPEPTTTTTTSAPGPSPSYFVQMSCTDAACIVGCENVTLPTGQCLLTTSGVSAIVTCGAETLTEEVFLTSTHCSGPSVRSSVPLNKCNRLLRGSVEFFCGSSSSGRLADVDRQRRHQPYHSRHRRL
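Enzyme 1.5 nM, Z-FR-AMC 2 uM, NaOAc 100 mM pH 5.5, DTT 5 mM, Triton X-100 0.01%; 15 min RT compound preincubation; kinetic ex360/em450, 60 s delta.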
Cruzain inh noDet – blocks cruzain activity in detergent-free assay. purified cruzain, Z-FR-AMC fluorescence, no detergent. actives 2.3% (n = 200,000). Potency, µM, for inactives: max response, negative = inhibition, actives largely listed as inhibitors;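 further: plate controls were enzyme without inhibitor for no effect and buffer without enzyme for full effect; nearly all actives have a fitted effect of over 40% in size; top concentration of the series not given in the record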
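Purified cruzain at 1.5 nM, pre-incubated 15 min with compound at room temperature in 100 mM sodium acetate pH 5.5, 5 mM DTT, 0.00005% Triton X-100. Reaction started with 2 uM Z-FR-AMC; AMC fluorescence increase over 60 s gives rate.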
LASV entry inh – inhibitors of Lassa virus binding or cell entry; Potency, µM (titrated, usually from 37.9 µM), for the others: top-dose activity change, negative = inhibition, actives largely listed as inhibitors; Lassa virus pseudotype entry inhibition, cell reporter; control for the full effect not named in the record; actives 1.2% (n = 300,000); active means well fitted inhibition curve with a large enough effect; inconclusive means small, poorly fitted or top-dose-only effect, or effect the other way; inactive means flat fitted curve, though single readings scatter; tested in HEK293 cells; further: on the % scale 0 is the no-effect control and ±100 the full control effect; nearly all actives have a fitted effect of over 50% in size; luciferase read-out
StopGo reporter – lowers the luciferase signal of an FMDV 2A StopGo reporter; human cells with a luciferase reporter of 2A StopGo recoding; control for the full effect not named in the record; Potency, µM (top dose mostly 57.9 µM), for inactives: at the top dose signal change, negative = less light; actives 1.2% (n = 410,000); AID 1159524; active = well fitted falling curve with a large enough effect; inconclusive = small, poorly fitted or top-dose-only effect; inactive = no such curve, though single readings can be large or run the other way; tested in HEK293T cells; further: on the % scale 0 is the no-effect control and ±100 the full control effect; nearly all actives have a fitted effect of over 45% in size; luciferase light after 4 h
Marburg entry inh – blocks Marburg virus binding to or entry into cells; AID 540276; Marburg virus pseudotyped entry inhibition, cell reporter; control for the full effect not named in the record; about a third of the inactives were read at about 46 µM; Potency, µM (series often up to 37.8 µM), without a hit: top-dose activity change, negative = inhibition, actives largely listed as inhibitors; actives 1.8% (n = 300,000); active = well fitted inhibition curve with a large enough effect; inconclusive = small, poorly fitted or top-dose-only effect, or effect the other way; inactive = flat fitted curve, though single readings scatter; tested in HEK293 cells; about a fifth of its hits are not listed in these tables; further: on the % scale 0 is the no-effect control and ±100 the full control effect; luciferase read-out
* marks the source's active call; other numbers are inactive results; ? = inconclusive; . = no result given; [ ] = dose if it differs, or a comment. Unless noted, the call rests on the fitted dose curve; in most records, active means well fitted curve in the direction sought with a large enough effect; inconclusive means small, poorly fitted or top-dose-only effect, or another doubt; inactive means no such curve, though single readings can be large; an effect the other way counts as inactive or inconclusive. Potency means the concentration at half of the fitted maximal effect.

SMILES	RE007 growth inh	SARS PLpro yeast	NS1 function inh	Cruzain Triton	Cruzain inh noDet	LASV entry inh	StopGo reporter	Marburg entry inh
CSc1nnc(NC(=O)c2ccc(C)c(S(=O)(=O)N3CCOCC3)c2)s1	-6.1%	-2.7%	-21.4%	-0.2%	8.5%	7.5%	12.3%	5.9%
Cn1cc(C(=O)C(=O)N2CCOCC2)c2ccccc21	7.6%	1.4%	2.6%	.	.	.	-14.4%	.
O=C(Nc1nnc(CC(c2ccccc2)c2ccccc2)s1)c1ccco1	-9.8%	-9.1%	-4.4%	4.8%	?	8.0%	-25.2%	-29.1%
COc1cc2nc(NC(=O)c3ccc(Cl)cc3)sc(=O)c2cc1OC	0.4%	2.0%	-0.2%	.	.	8.5%	-27.4%	7.3%
O=C(CN1CCCCCCC1)Nc1cccc(Cl)c1Cl	-11.0%	-2.3%	3.0%	.	.	.	-3.5%	.
c1ccc(Cn2nnnc2C(c2ccccc2)N2CCN(c3nc4ccccc4s3)CC2)cc1 (stereo not given)	12.9%	-2.3%	10µM*	4.4%	?	-7.0%	-22.6%	23.6%
COc1cc(/C=N/N=C2/C(=O)Nc3ccccc32)cc(OC)c1O	-16.6%	-8.8%	-20.5%	-7.4%	-2.8%	-25.4%	?	1.8%
COc1ccc(NC(=O)CC2C(=O)N(C)C(=S)N2Cc2ccncc2)cc1 (stereo not given)	-16.0%	6.9%	9.8%	.	.	-3.3%	10.4%	-4.4%[46.1 µM]
Cc1cccc(NC(=O)c2ccc(CN3CCN(Cc4ccccc4)CC3)cc2)c1	-9.8%	0.8%	3.7%	.	.	-0.7%	-17.7%	2.9%[46.1 µM]
CCOc1ccc2nc(NC(=O)CSc3cn[nH]n3)sc2c1	7.3%	-1.9%	10.4%	.	.	?	2.8%	?
Cc1cc(OCC(=O)OCC(=O)Nc2cccnc2Cl)ccc1Cl	-1.4%	-2.5%	.	.	.	7.9%	-10.2%	5.8%
Cc1oc(-c2cccs2)nc1CN1CCC(c2ccccc2)CC1	5.2%	-1.1%	-2.2%	.	.	-0.3%[46.1 µM]	3.9%	?
COc1ccc(N2CCN(Cc3cc(=O)oc4c3ccc3ccccc34)CC2)cc1	.	-3.7%	-0.8%	-1.8%	?	.	.	.
O=C(Oc1cccc2c(=O)[nH]ccc12)c1ccccc1	7.1%	1.9%	-11.4%	1.9%	3.0%	?	-9.9%	20.0%[46.1 µM]
COc1ccccc1Nc1ncnc2c1c(C)c(C)n2CCCN(C)C	4.7%	-2.3%	10.2%	.	.	.	-12.7%	.
O=S(=O)(c1ccc(NC(=S)N/N=C/c2cccc(Oc3ccccc3)c2)cc1)N1CCOCC1	4.6%	-0.9%	6.9%	.	.	?	-11.3%	-16.7%[46.1 µM]
CCOc1ccc(NC(=O)CN(C)C(=O)c2cc(S(=O)(=O)N3CCCCC3)ccc2Cl)cc1OCC	0.8%	-0.6%	.	.	.	?	-25.2%	29.5%
COc1cc(-c2noc(C)c2C#CC2(N)CCCCC2)cc(OC)c1OC	11.0%	2.0%	17.8%	.	.	.	2.6%	.
CN(C)CC(O)COc1cccc(OCC(O)CN(C)C)c1 (stereo not given)	-11.7%	3.1%	7.2%	2.3%	-10.2%	-7.9%	-7.1%	?
COc1ccccc1CNC(=O)COC(=O)/C=C/c1cccs1	8.2%	3.5%	2.2%	-4.2%	-1.1%	1.4%	8.0%	-37.9%
CCCCC(=O)Nc1cc(OCC)c(NC(=O)c2ccccc2[N+](=O)[O-])cc1OCC	-6.2%	-0.4%	4.6%	5.1%	-0.9%	-12.2%	.	-9.0%
CCOC(=O)C(C)(C)N(Cc1cccc(C)c1)S(=O)(=O)c1ccc(Cl)c([N+](=O)[O-])c1	.	-10.2%	-16.0%	-7.1%	3.2%	?	?	?
O=C(Cc1ccccc1)N1CCC(c2nc3ccccc3[nH]2)CC1	-20.4%	4.7%	-9.8%	1.1%	4.2%	-2.1%	-1.2%	-0.7%
CCCCN(C(=O)CN1C(=O)C2CCCCC2C1=O)c1c(N)n(CCC)c(=O)[nH]c1=O (stereo not given)	5.7%	0.4%	.	.	.	?	4.7%	?
O=C1c2ccccc2C(=O)N1CCCCN(C(=O)c1ccc([N+](=O)[O-])cc1)c1ccc(Cl)cc1	-4.5%	-9.7%	29.6%	3.2%	1.9%	-29.5%	-21.3%	?
COCC(=O)Nc1c(C(=O)Nc2ccc(C)cc2)oc2ccccc12	.	.	.	-9.4%	18.0%	12.0%[46.1 µM]	68.1%[activator]	?
CC(C)c1ccc(NC(=O)CSc2nc(=O)n(CCCN3CCOCC3)c3c2CCC3)cc1	-6.0%	2.8%	.	.	.	-16.0%	?	?
CC1=C(C(=O)Nc2ccccc2C)C(c2ccco2)n2ncnc2N1 (stereo not given)	.	.	.	-0.8%	-5.9%	4.7%[46.1 µM]	-18.6%	.
O=C(O)CNC(=O)CC1S/C(=N/N=C/c2ccccc2O)NC1=O (stereo not given)	-8.0%	25.4%	1.9%	.	.	.	-5.9%	.
CCC(=NCCO)c1c(O)n(C2CCCCC2)c(=O)[nH]c1=O	13.8%	-3.6%	1.1%	4.8%	1.1%	-15.0%	-5.4%	3.7%
CCC(C)N1C(=O)CCC1C(=O)N1CCN(c2ccccc2F)CC1 (stereo not given)	-8.3%	-14.3%	6.0%	0.7%	-2.0%	?	11.2%	8.1%
CCc1cc2cc3c(cc2nc1SCC(=O)Nc1cc(C)on1)OCO3	4.1%	8.8%	4.8%	-2.4%	25.1µM*	-33.6%	-26.3%	?
O=[N+]([O-])c1ccc(-c2csc3[n+]2CCS3)cc1	?	-10.6%	-1.5%	-2.2%	0.3%	-2.8%	-18.1%	-1.2%
CC1CCN(CCCCOc2ccc(C(=O)c3ccccc3)cc2)CC1	-13.8%	-8.2%	0.1%	-0.5%	-1.5%	15.8µM*	-16.0%	?
Cc1ccccc1C(=O)c1cccn1CC(=O)NCCCN1CCCCC1	4.7%	-4.0%	-3.4%	.	.	-9.3%[46.1 µM]	-6.3%	-29.5%[46.1 µM]
CC(C)OCCCNC(=O)c1cn(C)c2ccc(S(=O)(=O)N3CCCCCC3)cc2c1=O	.	.	.	8.4%	-11.5%	6.9%[46.1 µM]	2.6%	?
CN(C)C=Nc1c(C(=O)c2ccccc2)sc2nccc(N(C)C)c12	9.4%	29.6%	-10.0%	-3.8%	-7.2%	9.1%	-9.1%	-7.4%[46.1 µM]
O=C(O)c1cccnc1SCc1cn2cc(Cl)ccc2n1	7.0%	0.0%	-0.5%	.	.	-4.4%[46.1 µM]	-5.4%	-11.1%[46.1 µM]
CC1CC(C)CN(C(=O)c2ccncc2)C1 (stereo not given)	-0.8%	21.1%	9.7%	4.8%	-8.6%	-20.8%	-8.4%	?
CCOC(=O)c1c(NC(C)=O)sc2c(O)cccc12	0.8%[3.69 µM]	-4.5%	-14.4%	-4.3%	3.0%	-6.0%	-7.2%	-4.7%
COc1ccc(N=C/C=C2\C=C(c3ccccc3)OC(C)(C)O2)cc1	-3.3%	-20.9%	-9.1%	-11.9%	-3.9%	-24.0%	34.8%[activator]	?
Cc1cc(C(=O)Nc2ccc(F)cc2C)n(-c2ccccc2)n1	0.3%	1.0%	-3.4%	.	.	.	-12.9%	.
CCOC(=O)C1(C(=O)OCC)C(C(=O)c2ccccc2)C1c1ccccc1 (stereo not given)	-16.7%	.	.	.	.	-19.1%[46.1 µM]	-1.0%	?
CCCCNC(=O)C1CCCN1C(=O)NC1CCCCC1 (stereo not given)	3.1%	9.3%	7.4%	1.7%	-3.6%	3.5%	17.8%	6.5%
CC(C)(C)c1ccc(-c2n[nH]c(=S)n2Cc2ccccc2)cc1	17.5%	-2.3%	8.1%	.	.	?	-25.5%	?
Cc1cc(NS(=O)(=O)c2ccc(NC(=O)c3ccc([N+](=O)[O-])c(Cl)c3)cc2)no1	-7.3%	0.1%	-4.6%	.	.	11.1%	1.6%	10.7%
CCOC(=O)c1nn(-c2ccccc2)c2nnc(Cc3ccccc3)c(=O)n12	61.7%	-15.3%	36.2%	-4.6%	-2.9%	4.0%	-14.1%	22.9%
NC(=O)C1CCN(C(=O)c2ccc3c(c2)N(Cc2cccc(Cl)c2)C(=O)c2ccccc2S3(=O)=O)CC1	.	.	.	-3.6%	?	?	5.3%	.
NCCc1c(Cc2ccccc2)[nH]c2ccccc12	-0.1%	.	.	.	.	17.5%	-4.9%	?
O=C(c1ccc(F)cc1)N1CCN(c2ccc([N+](=O)[O-])c(N3CCCCC3)c2)CC1	-3.3%	-1.5%	-17.3%	-8.6%	-0.7%	17.3%	.	-19.2%

Single records (already shown). Order of values: RE007 growth inh	SARS PLpro yeast	NS1 function inh	Cruzain Triton	Cruzain inh noDet	LASV entry inh	StopGo reporter	Marburg entry inh
CCOC(=O)C1(C(=O)OCC)C(C(=O)c2ccccc2)C1c1ccccc1 (stereo not given) as listed: -16.7%	.	.	.	.	-19.1%[46.1 µM]	-1.0%	?
CC(C)(C)c1ccc(-c2n[nH]c(=S)n2Cc2ccccc2)cc1 as listed: 17.5%	-2.3%	8.1%	.	.	?	-25.5%	?

Further records
SMILES	RE007 growth inh	SARS PLpro yeast	NS1 function inh	Cruzain Triton	Cruzain inh noDet	LASV entry inh	StopGo reporter	Marburg entry inh
COC(=O)C1=CN(c2cc(C)cc(C)c2)C=C(C(=O)OC)C1c1ccc(OC)c(O)c1	10.6%	-3.2%	17.2%	.	.	.	-12.6%	?
COc1ccc(C2=NC3(CCCCCC3)N(CC(=O)Nc3cccc(Cl)c3)C2=O)cc1	.	.	.	-5.1%	-8.6%	?	?	-25.6%[46.1 µM]
Cc1ccc(N2C(=O)CC(C)CC2=O)cc1	2.5%	0.0%	0.0%	.	.	1.2%	-2.4%	-0.3%
COc1ccc(N2C(=O)CSC2c2ccc3c(c2)OCO3)c(OC)c1 (stereo not given)	-13.8%	2.2%	-16.7%	-1.7%	2.7%	9.6%	-9.0%	-3.3%
CN(C)c1ccc(/C=C2\C(=N)N3N=C(CC(=O)N4CCCC4)SC3=NC2=O)cc1Br	2.5%	3.6%	16.6%	.	.	.	-9.4%	.
O=C(CCC(=O)c1cccs1)NCc1cccc(C(F)(F)F)c1	11.5%	-6.4%	.	.	.	-9.8%	6.3%	10.4%
